# Screens from PubChem.
# miR-21 FLuc: qHTS Assay for Modulators of miRNAs and/orActivators of miR-21; 340,000 tested, under 10 active; HeLa miR-21 FLuc reporter, luciferase, 48 h; Potency, µM (series often up to 38.3 µM), for inactives: at the top dose reporter change, positive = more light; AID 2288, 2010; active = well fitted rising curve with a large enough effect; inconclusive = small, poorly fitted or top-dose-only effect; inactive = no such curve, though single readings can be large or run the other way;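 further: % of control where 0% means no effect; miR-21 action dims this reporter so a rising signal means less miR-21 action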
#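 Luminescence from a firefly luciferase reporter carrying a miR-21 binding site downstream, stably expressed under a CMV promoter in HeLa cells that make miR-21 endogenously, reports miRNA modulation after 48 h compound exposure up to approximately 40uM final.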
# GLA inh pH 4.5: qHTS Assay for Inhibitors of Human alpha-Galactosidase at pH 4.5; purified enzyme, 4-MU-alpha-Gal fluorescence, pH 4.5; activity change, negative = inhibition, % at 105 µM; 230,000 tested, under 10 active; inconclusive = small, poorly fitted or top-dose-only inhibition, or a rising curve; inactive = flat fitted curve, though single readings scatter; no compound was filed as active;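 further: 0% = full activity with enzyme and -100% = basal without enzyme; dose as in the result columns while the protocol names 77 µM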
# Target sequence (P06280 whole entry, looked up): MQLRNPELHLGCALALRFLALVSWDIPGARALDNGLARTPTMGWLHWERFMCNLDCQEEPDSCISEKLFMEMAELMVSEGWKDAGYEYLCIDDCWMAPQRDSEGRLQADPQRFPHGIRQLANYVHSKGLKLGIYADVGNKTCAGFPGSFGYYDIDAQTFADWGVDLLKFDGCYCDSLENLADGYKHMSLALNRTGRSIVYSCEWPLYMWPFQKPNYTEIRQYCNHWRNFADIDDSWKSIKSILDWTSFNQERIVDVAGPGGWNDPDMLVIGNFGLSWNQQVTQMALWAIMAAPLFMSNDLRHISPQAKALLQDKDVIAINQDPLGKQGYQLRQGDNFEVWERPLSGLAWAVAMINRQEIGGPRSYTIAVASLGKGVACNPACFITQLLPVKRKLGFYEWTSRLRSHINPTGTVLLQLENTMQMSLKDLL
# Rango complex inh: qHTS Assay for Inhibitors of Rango (Ran-regulated importin-beta cargo) - Importin beta complex formation; Rango CFP/YFP FRET sensor + importin beta, 45 min; Importin subunit beta-1 (Homo sapiens), Q14974; Potency, µM (highest dose often 92.2 µM), without a hit: at the top dose inhibition of complex formation; 0.031% of 340,000 active; active = rising FRET ratio curve, often small or poorly fitted; inconclusive = mostly compound fluorescence or quenching in the first reads; inactive = flat curves in all reads;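 further: potency means the concentration at half of the fitted maximal effect; 0% = DMSO wells and 100% = buffer wells lacking importin beta; nearly all actives have a fitted effect of over 15% in size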
#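 Inhibition scored from the CFP 486 nm/YFP 530 nm FRET ratio 45 min after adding 0.125 microM importin beta to 50 nM Rango biosensor preincubated 5 min with compound (room temperature, PBS with DTT, Tween-20, BSA). No-importin wells as positive control.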
# Rango dissoc inh: qHTS Assay for Inhibitors of RanGTP induced Rango (Ran-regulated importin-beta cargo) - Importin beta complex dissociation. Snurportin-1 (Homo sapiens) + GTP-binding nuclear protein Ran (Homo sapiens) + Importin …. Biochemical FRET Rango-importin beta, RanGTP-induced dissociation. Potency, µM (top dose mostly 46.1 µM), for the others: at the highest dose activity change, negative = inhibition. 0.071% of 340,000 active. AID 540253, 2011; active means falling FRET ratio curve, often poorly fitted, with flat reads before Ran was added; inconclusive means other falling curves, or compound fluorescence or quenching; inactive means flat or rising ratio curve;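 further: potency means the concentration at half of the fitted maximal effect; % of control where 0% means no effect; nearly all actives have a fitted effect of over 45% in size; -100% = wells without RanGTP and RCC1; the record marks most hits as doubtful in a second field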
#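 Rango (0.1 uM)–importin beta (0.25 uM) complex; RanGTP-RCC1 trigger; 45 min RT; CFP/YFP FRET read.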
# Numbers without * were called inactive; ? = inconclusive; · = not tested or not shown; & = joins results of further samples. This is a subset; the hit share may differ from the screen's.
SMILES,miR-21 FLuc,GLA inh pH 4.5,Rango complex inh,Rango dissoc inh
COc1ccc(N2CCN(C(=O)c3ccc4nc(N5CCCCC5)sc4c3)CC2)cc1,-51%,-2,4.7%,-15%
O=C(NC12CC3CC(CC(C3)C1)C2)c1cncc(Br)c1,2%,·,2.7%,22%
COc1ccc(N2CCN(c3nc4ccccn4c(=O)c3C=O)CC2)cc1,-47%,-7,0.3%,-13%
Cc1cc(C(=O)N2CCCC(N3CCN(c4cccc(Cl)c4)CC3)C2)nc(C)n1 (stereo not given),-3%,·,0.0%,-6%
O=C1c2ccccc2C(Nc2ccccc2)N1c1cccnc1 (stereo not given),-4%,-10,0.3%,-1%
COc1ccc(Br)c(C(=O)Nn2c(C)nc3ccccc3c2=O)c1,4%,2,-0.6%,-7%
O=C(Nc1nc(-c2cccs2)cs1)c1cccc(S(=O)(=O)N2CCCCCC2)c1,0%,-5,-2.7%,12%
CC(C)n1c(NCc2cccs2)nc2ccccc21,-13%,-2,-3.1%,-8%
COc1ccc(/C=N/NC(=O)c2ccc(O)cc2)cc1CN1CCCc2ccccc21,-2%,-22,-1.3%,6%
COc1ccc(F)c(-c2nc(CN3CCC(c4ccccc4)CC3)c(C)o2)c1,-3%,3,-5.6%,-13%
CCC(=O)N1CCN(c2ccc(Cl)cc2NC(=O)c2cccc([N+](=O)[O-])c2)CC1,1%,-7,-1.3%,4%
CCOc1ccc(S(=O)(=O)N2CCN(C(=O)c3ccc(C)c(S(=O)(=O)N4CCOCC4)c3)CC2)cc1,·,·,0.7%,0%
CC1=C([N+](=O)[O-])C(c2ccccc2)NC(=O)N1 (stereo not given),6%,·,-5.1%,5%
CCCC(C)C(=O)Nc1ccc(S(N)(=O)=O)cc1 (stereo not given),2%,8,-0.5%,-4%
COc1ccc(N(CC(=O)Nc2cccc([N+](=O)[O-])c2C)S(C)(=O)=O)cc1OC,-3%,2,2.2%,21%

# Looked up by structure from the entries so far:
SMILES,miR-21 FLuc,GLA inh pH 4.5,Rango complex inh,Rango dissoc inh
CCCC(C)C(=O)Nc1ccc(S(N)(=O)=O)cc1 (stereo not given),2%,8,-0.5%,-4%
COc1ccc(/C=N/NC(=O)c2ccc(O)cc2)cc1CN1CCCc2ccccc21,-2%,-22,-1.3%,6%

# Going on with the list.
SMILES,miR-21 FLuc,GLA inh pH 4.5,Rango complex inh,Rango dissoc inh
CC(=O)OC1CCC2(C)C(CCC3C2CC(=O)C2(C)C3CC(C(C(C)=O)C(C)=O)C2C(C)=O)C1 (stereo not given),·,·,2.7%,1%
CCOC(=O)c1c(NC(=O)/C=C\C(=O)O)sc(C)c1-c1ccccc1,10%,6,1.3%,7%
Cc1cc(S(=O)(=O)Nc2c(C)nc3nc[nH]n3c2=O)ccc1F,-2%,0,4.4%,-3%
C=CCn1c(SCC(=O)c2ccc(O)c(O)c2)nnc1-c1cccc(C)c1,·,·,-3.1%,-16%
COc1ccc(NS(=O)(=O)c2cccc(C(=O)NN=Cc3cc(Br)c(O)c(Br)c3)c2)cc1,·,·,?,-19%
O=C(Nc1ccc(OC(F)F)cc1)c1cc(S(=O)(=O)N2CCCCC2)ccc1N1CCOCC1,·,·,4.4%,-1%
O=C(O)[C@@H]1CCCN1C(=O)c1ccco1,-1%,2,-0.4%,-9%
COc1cccc(Nc2nnc(SCN3C(=O)c4ccccc4C3=O)s2)c1,-32%,5,0.7%,-15%
COC(=O)C1SCC2C(=O)N(Cc3ccc(Cl)cc3)CC(=O)N21 (stereo not given),1%,2,-2.2%,1%
CCC(=O)NC(=S)Nc1ccc(S(=O)(=O)NC2CCCCC2)cc1,13%,·,-1.9%,3%
O=C(N/N=C/C1CC2CCC1C2)C1CC1 (stereo not given),-9%,·,-1.9%,8%
Cc1ccc(-c2nnn(CC(=O)NCCc3ccc4c(c3)OCO4)n2)o1,-6%,-1,4.8%,13%
O=C(COc1ccc(S(=O)(=O)N2CCCCC2)cc1)N1CCCCCC1,1%,-4,-3.4%,-9%
CCS(=O)(=O)Nc1cc(OC)c(OC)cc1Cc1nccc2cc(OC)c(OC)cc12,-13%,5,8.5%,19%
CCCCc1nc(N)c(C#N)c(-c2ccco2)c1CCC,-6%,-12,-2.6%,-15%
CC(C)Cc1csc(NC(=O)c2ccccc2Cl)c1C(=O)O,23%,3,2.1%,5%
O=C(Nc1ccc2c(c1)OCCO2)C(=O)c1c[nH]c2ccccc12,17%,·,?,-19%
COc1ccc(S(=O)(=O)N2CCCCC2)cc1NC(=O)CN(C)C1CCCCC1,1%,-10,-3.4%,8%
Cc1cc(C(=O)CSc2ncccn2)c(C)n1-c1cccc(F)c1,-67%,4,-2.4%,-2%
O=C(NC1CCCC1)C(c1ccncc1)N(C(=O)c1csnn1)c1cccc(Cl)c1 (stereo not given),1%,·,4.3%,-6%
CC1=[N+]([O-])C(C)(C)C(c2ccc(Br)cc2)=[N+]1[O-],0%,-21,-2.5%,-8%
NC1=NC(=O)/C(=C/c2cn(CCC(=O)O)nc2-c2ccc(F)cc2)S1,-3%,-6,0.7%,-30%
CC(=O)Nc1cccc(-c2csc(Nc3ccc(C)cn3)n2)c1,-21%,-9,-0.1%,0%
CCS(=O)(=O)N1Cc2ccccc2CC1C(=O)Nc1nc2ccc(F)cc2s1 (stereo not given),-60%,-6,-1.8%,-8%
CC(=O)c1c(C)nc2ccccn12,0%,-5,1.7%,1%
O=C(CNC(=O)c1ccc(Br)o1)NCc1ccc2c(c1)OCO2,-2%,-4,4.7%,14%
COc1ccccc1NC(=O)Nc1ccnn1C1CCCCC1,0%,-5,0.9%,-4%
O=C(NCCOc1ccccc1Cl)c1cc(F)c(F)cc1Cl,-43%,2,-3.4%,6%
Cc1ccc2nc(-c3ccc(NC(=O)CCN4C(=O)c5ccccc5C4=O)cc3)sc2c1,-48%,2,-2.1%,-14%
CCOC(=O)C1=C(c2ccccc2)NC(=S)NC1c1ccc(Cl)c([N+](=O)[O-])c1 (stereo not given),7%,-6,·,·

# Rewritten with bars between the fields: part of the list above
SMILES | miR-21 FLuc | GLA inh pH 4.5 | Rango complex inh | Rango dissoc inh
COc1ccccc1NC(=O)Nc1ccnn1C1CCCCC1 | 0% | -5 | 0.9% | -4%
O=C(NCCOc1ccccc1Cl)c1cc(F)c(F)cc1Cl | -43% | 2 | -3.4% | 6%
Cc1ccc2nc(-c3ccc(NC(=O)CCN4C(=O)c5ccccc5C4=O)cc3)sc2c1 | -48% | 2 | -2.1% | -14%

# Other results
SMILES,miR-21 FLuc,GLA inh pH 4.5,Rango complex inh,Rango dissoc inh
CC1CCN(C(C)C(=O)Nc2ccc(S(=O)(=O)N3CCCC3)cc2)CC1 (stereo not given),·,·,0.7%,5%
O=C(NCc1cccnc1)C1CCC(CNS(=O)(=O)c2ccc(Cl)cc2)CC1 (stereo not given),-3%,3,2.5%,-15%
Cc1csc(NC(=O)c2cc(-c3ccncc3)nc3ccccc23)n1,5%,0,?,-8%
COc1ccc(Br)cc1S(=O)(=O)N1CC(C)OC(C)C1 (stereo not given),-2%,1,2.9%,?
CCCn1c(=O)[nH]c(=O)c2c1nc(-c1ccc(OC(F)(F)C(F)C(F)(F)F)cc1)n2CCOC (stereo not given),4%,3,-5.4%,0%
COc1ccc(/C=C/c2nc3cc(-c4ccccc4)ccc3o2)cc1O,0%,-7,?,-12%
Cc1ccc2cc(CN(CC3CCCO3)S(=O)(=O)c3c(C)ccc4nsnc34)c(=O)[nH]c2c1 (stereo not given),2%,-9,-4.1%,-20%
CCC(=O)NNc1cccc(Cl)n1,-12%,0,-2.7%,6%
O=S(=O)(Nc1ccc(-c2nc3cccnc3s2)cc1)c1cccs1,-35%,?,?,?
CCCc1nc2ccccc2c(=O)n1-c1ccc(C(=O)OCC)cc1,-1%,2,-0.6%,-1%
CCCCNc1cc(=O)n(C)c(=O)[nH]1,-2%,-9,3.6%,-8%
CCN1CCN(c2nc(Nc3ccc(OC)cc3)nc(N)c2[N+](=O)[O-])CC1,-5%,-8,0.8%,-3%
O=C(CCSc1ccc(Br)cc1)c1ccc(O)cc1,10%,·,-5.2%,-1%
CCOC(=O)C(NC(=O)c1ccc(OC)cc1)(Nc1cc(C)on1)C(F)(F)F (stereo not given),-8%,-8,3.9%,8%
COc1ccccc1CN(C)C(=O)c1cc(C)nc2ccccc12,8%,·,-1.3%,-1%
CCCCSc1nnc(NC(=O)CCc2ccccc2)s1,-6%,-4,-0.2%,0%
COc1ccc(C2=NS(=O)(=O)N(C)C(C(=O)Nc3ccc(F)cc3F)=C2)cc1,0%,·,1.8%,-23%
COc1ccc(OC)c(C(=O)c2coc3cc(Br)c(O)c(Br)c23)c1,·,·,-2.6%,4%
CCOC(=O)C1C(=O)C=C(c2ccc(C)cc2)CC1c1cccc([N+](=O)[O-])c1 (stereo not given),1%,-10,?,-15%
Cc1cccn2c(N)c(-c3ccccc3)nc12,-30%,4,?,?
Cc1ccccc1NC(=O)COC(=O)c1cccc(S(=O)(=O)N2CCCCC2)c1,·,·,-1.9%,19%
CN(c1ccccc1)S(=O)(=O)c1cccc(C(=O)Nc2nn[nH]n2)c1,1%,1,0.8%,0%
O=C(COc1cc(Cl)c(Cl)cc1Cl)NC(=O)Nc1ccc2c(c1)OCCO2,-58%,0,-3.2%,-16%
O=c1c2ccccc2nc(-c2ccc(F)cc2)n1NCc1ccccc1O,9%,4,0.2%,6%
CC1CCCCC1NC(=O)COC(=O)c1ccc2ccccc2n1 (stereo not given),-1%,2,-2.1%,-18%
COc1ccc(S(=O)(=O)Nc2ccc(F)cc2)c(C)c1C,1%,7,-4.0%,8%
CCOC(=O)c1ccc(NC(=O)c2sc3nc4n(c(=O)c3c2C)CCC4)cc1,-3%&-7%,·,0.7%,7%
Cc1ccc(N(CC(=O)NC2CC3CCC2C3)S(C)(=O)=O)cc1C (stereo not given),-6%,-3,4.2%,3%
CC[C@H](C)[C@H](NC(=O)c1ccc(Cl)cc1)C(=O)OCC(=O)c1ccc2c(c1)NC(=O)CO2,28%,-3,-1.1%,-23%
Cn1c(CNC(=O)c2ccc3c(c2)OCO3)nnc1SCC(=O)Nc1ccc(F)cc1F,-2%,·,0.1%,9%
O=C(CCCNC(=O)c1ccc(Cl)cc1)Nc1nccs1,·,·,-9.0%,7%
Cc1ccc(NC(=S)N2CCN(Cc3ccc4c(c3)OCO4)CC2)c(C)c1,·,·,-2.9%,6%
C[C@@H](C(=O)N1CCN(Cc2ccc3c(c2)OCO3)CC1)n1nnc2ccccc2c1=O,7%,·,-2.2%,-9%
CCOC(=O)c1cc(NC(=O)SCC(=O)O)c(C)nc1C,1%,-16,1.3%,6%
CN(C(=O)COc1ccccc1)c1nnc(-c2cccnc2)s1,-10%,-3,1.8%,-6%
Cc1noc(C)c1CSCC(=O)N(C)CC(=O)Nc1ccc(F)cc1,·,·,5.0%,14%
CCCCOc1ccc(C(=O)Nc2ccc(N3CCN(C)CC3)cc2)cc1,-6%,-16,0.8%,0%
CCN(CC)S(=O)(=O)c1ccc2c(c1)nc(CCC(=O)OCC(=O)Nc1cc(OC)cc(OC)c1)n2C,-2%,2,0.8%,1%
O=C(/C=C/c1cccc([N+](=O)[O-])c1)NCc1ccccc1,3%,7,-0.8%,14%
Cc1ccc(-c2nnc(Nc3ccc4c(c3)OCO4)c3ccccc23)cc1S(=O)(=O)NC(C)C,-6%,3,?,12%
Cn1c(Oc2ccccc2)c(C=O)c2ccccc21,0%,7,-0.8%,12%
CC(=O)Nc1ccc(S(=O)(=O)NCCC(=O)NCCc2ccc(F)cc2)cc1,-2%,5,5.0%,-8%
COc1ccc(Nc2nc(NCc3ccco3)nc(N/N=C/c3ccc(O)cc3)n2)cc1,0%,3,0.6%,0%
S=C(Nc1cccc2ccccc12)Nc1cccc2ccccc12,·,·,0.3%,0%
CCc1nn2c(N(C)CCO)cc(C)nc2c1-c1ccc(F)cc1,-4%,3,?,6%
O=C(/C=C/c1ccccc1)NC(=S)NNC(=O)Cc1cccs1,-28%,-3,-0.5%,0%
